# Measles inh: inhibitors of measles virus growth in cells, primary screen, measles RdRp inhibitor project, cell-based, single point, HTS; hit rate 0.1% among 33,000; z-score (concentration not given with the values); infected Vero cells, GFP fluorescence, 64 h; hits give low values;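 active = z-score under -3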;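 also: score is relative to mean and SD of the compound wells of a plate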
# The depositor's hits bear a star. These rows are one share of the data (hit frequency here may not be typical).
canonical_smiles | Measles inh
CC(=O)N1CCC(=O)Nc2ccccc21 | -0.83
COc1ccc(N(CC(=O)Nc2c(C)n(C)n(-c3ccccc3)c2=O)S(C)(=O)=O)c(OC)c1 | -0.17
CC1CCCC(C)N1C(=O)CCN1C(=O)c2ccccc2C1=O (centres undefined) | 0.81
CCCOC(=O)C1=C(C)NC2=C(C(=O)CC(c3ccccc3OC)C2)C1c1cccc([N+](=O)[O-])c1 (centres undefined) | 0.11
CC(CCc1ccccc1)NC(=O)CCn1c(=O)[nH]c2ccccc2c1=O (centres undefined) | -0.14
CCOC(=O)c1c(Cl)cc(C)nc1Cl | -0.32
Cn1c(N)c(C(=O)CN2CCOCC2)c(=O)n(C)c1=O | -0.05
CC(=O)N1c2ccc(S(=O)(=O)N3CCCC3)cc2CC1C (centres undefined) | 0.64
COc1cccc(C(C2C(=O)CC(C)(C)CC2=O)C2C(=O)CC(C)(C)CC2=O)c1 | -0.63
CCOC(=O)c1c(NC(=O)C(C)Oc2ccc(OC)cc2)sc2c1CCC(C)C2 (centres undefined) | -1.3
O=[N+]([O-])c1cccc(-c2nc(-c3ccccc3)no2)c1 | -0.77
COC(=O)C1=C(C)NC(C)=C(C(=O)OC)C1c1cn(-c2ccccc2)nc1-c1ccco1 | -0.53
Cc1cc(N2C(=O)c3ccccc3C2=O)ccc1Br | -1
CSc1nnc2c(n1)OC1(CCCCC1)Nc1ccccc1-2 | -0.74
CSc1ccc(C2Oc3ccc(Cl)cc3C3CC(c4ccco4)=NN32)cc1 (centres undefined) | 1.5
CCn1c(=O)c(C(=O)NC23CC4CC(CC(C4)C2)C3)c(O)c2ccccc21 | -0.92
CC1Cc2nc(SCC(=O)Nc3cccc(Cl)c3)n(C)c(=O)c2S1 (centres undefined) | 0
COc1cccc2sc(=NC(=O)c3ccc(OC(C)C)cc3)n(C)c12 | 0.19
COC(=O)c1sc(=S)n(-c2ccc(OC)c(Cl)c2)c1N | 0.31
CCOC(=O)c1ccc(NC(=O)CCS(=O)(=O)c2ccc(C)cc2)cc1 | 0.67

# Continued (6 carried over from the part before).
canonical_smiles | Measles inh
CSc1ccc(C2Oc3ccc(Cl)cc3C3CC(c4ccco4)=NN32)cc1 (centres undefined) | 1.5
CCn1c(=O)c(C(=O)NC23CC4CC(CC(C4)C2)C3)c(O)c2ccccc21 | -0.92
CC1Cc2nc(SCC(=O)Nc3cccc(Cl)c3)n(C)c(=O)c2S1 (centres undefined) | 0
COc1cccc2sc(=NC(=O)c3ccc(OC(C)C)cc3)n(C)c12 | 0.19
COC(=O)c1sc(=S)n(-c2ccc(OC)c(Cl)c2)c1N | 0.31
CCOC(=O)c1ccc(NC(=O)CCS(=O)(=O)c2ccc(C)cc2)cc1 | 0.67
COc1cc(NS(=O)(=O)c2ccc(Br)s2)cc(OC)c1 | -0.39
Clc1ccccc1CN1CCN(C2C3CC4CC(C3)CC2C4)CC1 (centres undefined) | -0.14
CCc1ccccc1NS(=O)(=O)c1ccc2[nH]cc(C(=O)NC3CCCC3)c(=O)c2c1 | -0.66
CCCc1cc2c(=O)c(-c3cc4ccccc4o3)c(C)oc2cc1OC | -1.3
COCCCNC(=O)C1CC(=O)N(C2CCCCC2)C1 (centres undefined) | 0.29
CC1CCN(S(=O)(=O)c2ccc3[nH]c(=O)cc(C(=O)NCCN4CCCCC4C)c3c2)CC1 (centres undefined) | 0.94
Cc1ccc(-c2noc(C3CCCO3)n2)cc1 (centres undefined) | 1.2
Cc1ccc(S(=O)(=O)CCC(=O)NC2CCCCC2)cc1 | 0.28
CSc1cccc(NC(=O)CSc2ncccc2C(=O)Oc2ccccc2Cl)c1 | 0.7
CCn1c(=O)c(C(=O)NCc2ccccc2F)c(O)c2ccccc21 | -1.7
CCn1ncc(CN(C)C(=O)C2c3ccccc3Oc3ccccc32)c1C | -0.03
Cc1ccc(C(=O)c2ccc(N3CCCCC3)c(F)c2)cc1C | -0.6
COCCOC(=O)C1=C(C)NC2=C(C(=O)CC(C)(C)C2)C1c1ccc(C(C)C)cc1 (centres undefined) | 0.21
COCCNC(=O)C1CC(=O)N(C2CCCC2)C1 (centres undefined) | -1.4
Cc1ccc2cc3cc(C(=O)N4CCN(c5ccc([N+](=O)[O-])cc5)CC4)oc3nc2c1 | -0.27
O=C(NCC(=O)N1CCN(c2ccccc2)CC1)c1cccc(C(F)(F)F)c1 | 0.32
CC1=C(C(=O)Nc2cccc(C)n2)C(c2cc([N+](=O)[O-])ccc2Cl)C2=C(CC(C)(C)CC2=O)N1 (centres undefined) | -0.78
CCc1nnc(NC(=O)c2c(O)c3cccc4c3n(c2=O)CCC4)s1 | -0.48
COc1ccc(S(=O)(=O)N2CC(C)OC(C)C2)cc1OC (centres undefined) | -0.25
CC(C)NC(=O)c1cccn2c(=O)c3ccc(Cl)cc3nc12 | -0.33
O=C1c2cccc3c(N4CCOCC4)ccc(c23)C(=O)N1c1ccccc1 | 1.1
COc1ccc(S(=O)(=O)N2CCN(CCC(=O)Nc3ccc(N(C)C)cc3)CC2)cc1 | 0.04
CCCCn1c(=NC(=O)c2ccc(C(C)(C)C)cc2)c(C(=O)OCC)cc2c(=O)n3ccccc3nc21 | 0.81
Cc1cccc(N(CC(=O)NCc2ccccn2)S(=O)(=O)c2ccccc2)c1C | -0.39
COC(=O)c1ccc(Oc2c(C)oc3cc(O)ccc3c2=O)cc1 | -0.8
CC(NC(=O)c1ccccc1)C1CC2CCC1C2 (centres undefined) | 2.1
CC1=C(C(=O)N2CCCCC2)C(c2ccc(Br)cc2)C2=C(CCCC2=O)N1 (centres undefined) | -1.5
COc1ccc(N2CCN(C(=O)c3ccc(N4CC5CC(C4)c4cccc(=O)n4C5)c(NC(=O)c4ccccc4Cl)c3)CC2)cc1 (centres undefined) | -0.19
Cc1cc(C)nc(SCCS(=O)c2ccc(C(C)(C)C)cc2)n1 (centres undefined) | -0.4
CC(C)Oc1ccc(N2CC(C(=O)Nc3nccs3)CC2=O)cc1 (centres undefined) | 0.12
COc1ccccc1Cn1c(=S)[nH]c2cc(C(=O)NC3CCCC3)ccc2c1=O | -0.88
O=C(c1ccc(-c2nnc(-c3ccccc3)o2)cc1)N1CCc2ccccc2C1 | -0.59
Cc1ccc(-c2csc(NC(=O)c3cccc(Oc4ccccc4)c3)n2)cc1 | 0.38
Nc1c(C(=O)c2ccccc2)oc2ccc(Br)cc12 | -0.84
COc1ccc(OCC(O)Cn2c(N3CCCCCC3)nc3c2c(=O)[nH]c(=O)n3C)cc1 (centres undefined) | 1.3
CCCCN(C)C(=O)c1c[nH]n2c(=O)c(Cc3ccc(F)cc3)c(C)nc12 | 0.46
Cc1ccc2nc(NC(=O)C3CCCN(S(=O)(=O)c4cccc5nonc45)C3)sc2c1 (centres undefined) | -0.25
Cn1c(=O)oc2cc(S(=O)(=O)Nc3ccccn3)ccc21 | -0.16
Cc1cc(C)c(C#N)c(SCC(=O)Nc2cccc3cccnc23)n1 | 0.91
O=[N+]([O-])c1cc(C2N(Cc3ccccc3)CCN2Cc2ccccc2)ccc1Cl | -0.44
O=C(Nc1cccc(-c2nc3ccccc3o2)c1)C1CCCCC1 | -1.1
COC(=O)c1ccccc1NC(=O)c1ccc(N2CC3CC(C2)c2cccc(=O)n2C3)c(NC(=O)c2ccccc2Br)c1 (centres undefined) | 0.22
CCN(CC)C(=O)c1ccccc1NC(=O)c1ccccc1F | -0.14
NC(=O)CSc1nc2c(sc3ccccc32)c(=O)n1CCc1ccccc1 | -0.12
CC1=C(C(=O)Nc2cccc(C)c2C)C(c2ccccc2Cl)NC(=O)N1 (centres undefined) | -1
COc1ccc(NC(=O)CCCC(=O)O)cc1 | -0.47
O=c1cc(-c2ccccc2)c2ccc(Oc3ccc(C(F)(F)F)cc3[N+](=O)[O-])cc2o1 | -0.66
Cc1ccc(-n2c(=O)c3sccc3n(Cc3cccc(F)c3)c2=O)cc1 | -0.61
CC1(C)CC(=O)C=C(NCC(=O)O)C1 | -0.12
CCOc1ccc(C(=O)Nc2ccc3oc(-c4cccc(C)c4)nc3c2)cc1 | -0.8
CCC(=O)Nc1ccc(S(=O)(=O)Nc2onc(C)c2C)cc1 | 1.6
Cc1ccc(C)c(C(=O)CC2(O)C(=O)N(Cc3ccccc3C)c3ccccc32)c1 (centres undefined) | -0.86
CC1CCC(NC(=O)CN2CCN(Cc3ccccc3F)C2=O)CC1 (centres undefined) | 0.92
O=C(CSc1nc2ccccc2s1)Nc1ccc(Cl)cc1 | -0.85
CC(C)CNC(=O)C1CC(=O)OC12CCCCC2 (centres undefined) | -0.19
CCC1Oc2ccc(C)cc2N(CC(=O)NCCOC)C1=O (centres undefined) | 1.2
COC(=O)CSc1cc([N+](=O)[O-])cc(S(=O)(=O)c2ccc(Cl)cc2)c1C | 0.07
CC1=C(C(=O)OCC(C)C)C(c2ccc(N(C)C)cc2)NC(=O)N1 (centres undefined) | 2
CCOc1ccc(NC(=O)CSc2nc3[nH]ncc3c(=O)n2-c2cccc(C)c2)cc1 | 0.06
COc1ccc(OC)c(C2NC(=O)NC(C)=C2C(=O)Nc2ccc(C)c(Cl)c2)c1 (centres undefined) | -0.01

# Continuation.
canonical_smiles | Measles inh
Clc1ccc(-c2cn3c4ccccc4n(CCN4CCCCC4)c3n2)cc1 | -0.87
O=C(c1ccc(SCc2ccccc2F)c([N+](=O)[O-])c1)N1CCN(c2ccccn2)CC1 | -0.13
COCCNC(=O)C(=O)Nc1cccc(Br)c1 | 0.49
O=C(O)COc1ccc(-c2cc(C(=O)O)c3cc(Br)ccc3n2)cc1 | 0.41
O=[N+]([O-])c1cn(-c2nc(-c3ccco3)cc(C(F)(F)F)n2)cn1 | 0.32
CCC(=O)N1CCc2cc(Br)cc(S(=O)(=O)Nc3ccc(Cl)c(C(F)(F)F)c3)c21 | -0.76
Cc1ccc(NC(=O)C2CCCN(S(=O)(=O)c3c(C)n[nH]c3C)C2)cc1 (centres undefined) | 0.8
CCOCCCn1c(=S)[nH]c2cc(OCC)c(OCC)cc2c1=O | 0.87
CCN(Cc1ccccc1)S(=O)(=O)c1ccc(F)c(C(=O)Nc2ccccc2Br)c1 | 0.87
N#Cc1c(NC(=O)c2cnccn2)sc2c1CCCC2 | -0.1
O=C(NCCN1CCOCC1)c1ccc2c(c1)N(Cc1ccccc1F)C(=O)CS2 | 0.39
COc1ccc(OC)c(S(=O)(=O)Nc2cc(C(=O)N3CCOCC3)ccc2N2CC3CC(C2)c2cccc(=O)n2C3)c1 (centres undefined) | -1.1
O=C1Nc2ccccc2C(O)(C(=O)NCCCN2CCCCCC2)N1c1ccccc1 (centres undefined) | -0.31
O=C(C1CCN(S(=O)(=O)c2cnc[nH]2)CC1)N1CCCCCC1 | 1.1
CC(C)C(C(=O)OCC(=O)c1ccccc1)N1C(=O)C2C3C=CC(C3)C2C1=O (centres undefined) | 1.4
COc1cccc2c1OC1(C)CC2NC(=O)N1Cc1ccccc1 (centres undefined) | 1.1
Cc1cc(C)cc(NC(=O)C2C3C=CC4(O3)C2C(=O)N(C2CCCCC2)C4C(=O)NC2CCCCC2)c1 (centres undefined) | -0.62
CCC(=O)N(Cc1ccco1)C1CC(=O)N(c2ccccc2)C1=O (centres undefined) | 0.41
CCOc1ccc(Nc2nc3ccccc3nc2NS(=O)(=O)c2ccc(Br)cc2)cc1 | 0.99
O=C(Nc1cc2ccccc2oc1=O)C1CCCCC1 | 0.17
CCOC(=O)C1=NN(c2ccc(Br)cc2)C2C(=O)N(c3ccc(C)cc3)C(=O)C12 (centres undefined) | 0.66
CCCc1ccc(C=Cc2ccccc2)nc1 | -0.99
COc1ccc(S(=O)(=O)N2CCN(S(=O)(=O)c3ccc([N+](=O)[O-])cc3)CC2)cc1 | -0.66
CCn1cc(C(=O)N2CCN(c3ccc([N+](=O)[O-])cc3)CC2)c(=O)c2ccc(C)nc21 | 0.76
Cc1cccc2oc(-c3cc(N=Cc4cccc([N+](=O)[O-])c4O)ccc3O)nc12 | 3.6
Cc1ccc(NC(=O)c2sc3nc(-c4ccc(F)cc4)ccc3c2N)c(C)c1 | 1.1
Cn1cc(C(=O)NCCCN2CCCC2)c(=O)c2cc(S(=O)(=O)N3CCOCC3)ccc21 | 1.1
CCOC(=O)c1c(NC(=O)c2cccc([N+](=O)[O-])c2C)sc2c1CCCCC2 | 0.11
Nc1nonc1-c1noc(-c2cccc(Br)c2)n1 | -0.66
O=S(=O)(NCCSc1ccc(Cl)cc1)c1ccc2c(c1)OCCO2 | 0.18
CC1=CC(C)(C)Nc2ccc(OC(=O)c3ccccc3Br)cc21 | -0.21
O=C(CSc1oc(-c2ccco2)nc1S(=O)(=O)c1ccc(Cl)cc1)Nc1ccc(F)cc1 | 0.77
Cc1ccc(SC2=C(N3CCOCC3)C(=O)N(c3cc(C)cc(C)c3)C2=O)cc1 | 0.14
COC(=O)c1sc(S(=O)(=O)NC(C)C(=O)O)c(C(=O)OC)c1C (centres undefined) | -1.1
CCNC(=O)C1Cc2ccccc2CN1S(=O)(=O)c1cccs1 (centres undefined) | -0.36
CC1=C(C(=O)Nc2cccc(F)c2)C(c2cccc(Oc3ccccc3)c2)C2=C(CC(C)(C)CC2=O)N1 (centres undefined) | -1.1
CCOc1ccc(Sc2cc(C(=O)NC3CC3)c3ccccc3n2)cc1 | 0.47
O=c1c2c3c(sc2n(Cc2ccc([N+](=O)[O-])cc2)c(=O)n1Cc1ccccc1)CCCC3 | -0.78
C=CCC1(Nc2cccc(C)c2C)CCCCC1 | 0.24
CC(C)c1nc(N2CCCCC2)c(C#N)c2c1COC(C)(C)C2 | 2
CC(C)Oc1cccc(C(=O)Nc2ccc(Br)cn2)c1 | -0.34
Cc1nc2c(C(=O)NC3CCCC(C)C3C)cnn2c(C)c1Cc1ccccc1Cl (centres undefined) | -1.1

# Three entries from above, arranged by formula weight, high to low:
canonical_smiles | Measles inh
CC1=C(C(=O)Nc2cccc(F)c2)C(c2cccc(Oc3ccccc3)c2)C2=C(CC(C)(C)CC2=O)N1 (centres undefined) | -1.1
CC1=CC(C)(C)Nc2ccc(OC(=O)c3ccccc3Br)cc21 | -0.21
COC(=O)c1sc(S(=O)(=O)NC(C)C(=O)O)c(C(=O)OC)c1C (centres undefined) | -1.1
